Source: PubChem
INS promoter inh = inhibitors of insulin promoter-driven GFP, primary screen, imaging, TRM-6 cells (human fetal islet line), eGFP reporter, cell count. reporter expression induced with tamoxifen. inhibition, % at 2 µM. actives 0.9% (n = 130,000);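 active means inhibition above the mean plus 3 SD, with well images judged a real hit on visual review, cut at about 60% in these data, passing the limit was not always enough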
PKD1 inh = inhibitors of human PKD1 kinase, biochemical, fluorescence polarization; Serine/threonine-protein kinase D1 (Homo sapiens), Q15139; PKD1 kinase fluorescence polarization assay; inhibition, %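 (about 10 µM by stock and volumes)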; actives 0.056% (n = 200,000); AID 797, 2007;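 active means inhibition of 50% or more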;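 further: controls were vehicle for no effect and a reference inhibitor for full effect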
Target sequence (Q15139 whole entry, looked up): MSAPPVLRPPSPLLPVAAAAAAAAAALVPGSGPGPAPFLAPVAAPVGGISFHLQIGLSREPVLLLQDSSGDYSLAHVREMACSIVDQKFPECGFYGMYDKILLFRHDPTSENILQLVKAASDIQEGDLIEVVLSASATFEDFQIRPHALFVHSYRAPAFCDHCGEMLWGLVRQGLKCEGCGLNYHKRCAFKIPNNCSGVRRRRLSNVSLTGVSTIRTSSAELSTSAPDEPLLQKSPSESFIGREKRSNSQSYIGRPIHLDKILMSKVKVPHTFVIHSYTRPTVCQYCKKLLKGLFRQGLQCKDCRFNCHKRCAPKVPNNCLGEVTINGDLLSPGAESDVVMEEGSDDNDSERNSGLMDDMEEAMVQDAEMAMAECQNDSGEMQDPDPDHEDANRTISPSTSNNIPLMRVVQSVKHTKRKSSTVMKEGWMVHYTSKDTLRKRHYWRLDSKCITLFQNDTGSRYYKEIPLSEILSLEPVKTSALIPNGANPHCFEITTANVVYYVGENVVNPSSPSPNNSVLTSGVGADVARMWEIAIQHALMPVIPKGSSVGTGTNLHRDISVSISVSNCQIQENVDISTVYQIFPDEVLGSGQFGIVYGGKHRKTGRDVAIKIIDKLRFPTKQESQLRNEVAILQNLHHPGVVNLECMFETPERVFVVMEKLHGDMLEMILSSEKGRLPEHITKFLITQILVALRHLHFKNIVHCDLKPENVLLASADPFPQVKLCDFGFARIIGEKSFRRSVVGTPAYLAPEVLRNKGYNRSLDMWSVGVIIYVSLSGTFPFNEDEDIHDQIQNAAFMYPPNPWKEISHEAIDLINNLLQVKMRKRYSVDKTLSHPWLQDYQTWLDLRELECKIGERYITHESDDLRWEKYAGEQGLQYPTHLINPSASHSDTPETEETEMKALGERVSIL
RGS16-Gao HTS = modulators of RGS16 binding to Galphao, primary screen, biochemical, human proteins, multiplexed bead flow cytometry. actives 0.38% (n = 220,000). AID 1441, 2008. bead-based flow cytometry RGS16-Galphao binding, fluorescence; actives lie on both sides. binding response (% of control), % at 10 µM;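 active means below 25% or above 175%, edge rows of some plates excepted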;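 further: Galphao activated by GDP with aluminum fluoride before binding; 100% = wells without compound and 0% = beads without RGS; some results beyond the cut were filed as inactive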
GALR2 agonist = GALR2 receptor agonists, primary screen, cell-based; Galanin receptor type 2 (Homo sapiens), O43603; GALR2-expressing cells, agonist activation read-out; activation, %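 (tested at 5 µM)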; actives 0.48% (n = 140,000); AID 803, 2007;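 active means above mean plus 3 SD of all compounds, about 5% in these data, not always enough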;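 further: 0% = vehicle buffer wells and 100% = reference agonist at full effect; tested in CHO reporter cells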
HSV augment = enhancers of HSV replication in host cells, fold increase, host cell viability. HSV replication augmentation in cells. maximum fold increase. actives 0.005% (n = 220,000). AID 1956, 2009;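 active means peak rise of 1.5-fold or more in the series; tested in PC3 cells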;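 further: first round at 10 µM; read as green reporter fluorescence; hits show the peak of a series up to 25 µM; 1 = signal of infected wells without compound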
INS promoter inh cell count = recorded beside INS promoter inh, whose call it bears; normalized cell count, %; measured here: cell count, toxicity; reference of the scale not given here;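 cells exposed to compound for 48 h; stained nuclei by imaging scaled within each plate; lower means fewer cells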
HSV augment primary fold = recorded beside HSV augment, whose call it bears; fold increase; compound at 10 µM; measured here: primary screen fold increase 10 uM; tested in PC3 cells;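 GFP signal in the first replicate; 1 = infected wells without compound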
Starred values were filed as active, the others as inactive; i = inactive; . = no result given; [ ] = dose if it differs, or a comment.

SMILES | INS promoter inh | INS promoter inh cell count | PKD1 inh | RGS16-Gao HTS | GALR2 agonist | HSV augment | HSV augment primary fold
CCN(CC)CCC(=O)NC(C)(C)Cc1ccc(O)cc1 | 57 | 132 | -4 | 103 | 0.3 | i | 1
CC(=O)c1c(C(C)=O)c(C)n(NC(=O)c2ccccc2O)c1C | . | . | 7 | 102 | -1.4 | i | 0.87
Cc1nc(Cc2nnc(SCc3nc(N)nc(Nc4ccccc4C)n3)o2)cs1 | . | . | 17 | 92 | -2.3 | i | 1.1
CC1CC(C)CN(C(=O)Nc2ccc(Br)cc2)C1 (stereo not drawn) | . | . | -2 | 98 | . | i | 0.91
COCCn1c(-c2ccc(F)cc2)nc2oc3cc(OC)ccc3c(=O)c2c1=O | . | . | . | 94 | . | i | 1
Cc1ccc(C(c2nnnn2CCC(C)C)N2CCN(C)CC2)cc1 (stereo not drawn) | -13 | 58 | -5 | 102 | 0.8 | i | 0.99
Cc1cc(C)n2nc(SCC(=O)N(CC(C)C)c3c(N)n(CC(C)C)c(=O)[nH]c3=O)nc2n1 | . | . | -4 | 101 | . | i | 1.1
Cc1nc2c(C(=O)NCCC3=CCCCC3)c[nH]n2c(=O)c1Cl | . | . | -1 | 103 | -3.0 | i | 1.1
Cc1nnc2n(-c3ccccc3)c(=O)c3c4c(sc3n12)CC(C)CC4 (stereo not drawn) | 6 | 109 | 4 | 99 | -4.6 | i | 0.87
C=CCNc1nc(NC(C)(C)CO)nc(OCC)n1 | . | . | -3 | 102 | -3.2 | i | 0.91
CCCCC(CC)CNC(=O)C(Cc1ccccc1)NS(=O)(=O)c1ccc2c(c1)CCC(=O)N2 (stereo not drawn) | . | . | -3 | 102 | . | i | 0.93
O=[N+]([O-])/C(C(=C(Cl)Cl)N1CCOCC1)=C1\NCCO1 | . | . | 1 | 103 | . | i | 0.97
Cc1cc(C)n(CC(O)COc2ccc3ccccc3c2)n1 (stereo not drawn) | . | . | -10 | 107 | . | i | 0.88
COC(=O)c1ccc(OCCn2cnc3ccccc3c2=O)cc1 | . | . | -8 | 101 | -1.8 | i | 0.89
CC(=O)Nc1ccc(NC(=O)CCn2nnc3ccccc32)cc1 | 15 | 71 | 4 | 97 | . | i | 1
CCO[C@H]1OC(C(=O)NCc2ccccc2)=C[C@@H](c2ccc3c(c2)OCO3)[C@@H]1CCCO | . | . | 0 | 103 | . | i | 0.89
CN(C)c1c(F)cc(-c2nn[nH]n2)cc1F | . | . | . | 106 | . | i | 0.97
CC1CCc2sc(NC(=O)C3CC(Cl)=CCC3C(=O)O)c(C#N)c2C1 (stereo not drawn) | . | . | 3 | 102 | . | i | 0.94
Clc1ccc(C(c2ccccc2)N2CCNCC2)cc1 (stereo not drawn) | -13 | 62 | 0 | 96 | -1.1 | i | 0.89
O=C1CN(c2nc(-c3ccccc3)c3cc(Br)ccc3n2)c2ccccc2N1 | . | . | -7 | 101 | -0.3 | . | .

By substructure: the compounds so far with a carbonyl joined to an NH by a bond outside any ring.
SMILES | INS promoter inh | INS promoter inh cell count | PKD1 inh | RGS16-Gao HTS | GALR2 agonist | HSV augment | HSV augment primary fold
CCN(CC)CCC(=O)NC(C)(C)Cc1ccc(O)cc1 | 57 | 132 | -4 | 103 | 0.3 | i | 1
CC(=O)c1c(C(C)=O)c(C)n(NC(=O)c2ccccc2O)c1C | . | . | 7 | 102 | -1.4 | i | 0.87
CC1CC(C)CN(C(=O)Nc2ccc(Br)cc2)C1 (stereo not drawn) | . | . | -2 | 98 | . | i | 0.91
Cc1nc2c(C(=O)NCCC3=CCCCC3)c[nH]n2c(=O)c1Cl | . | . | -1 | 103 | -3.0 | i | 1.1
CCCCC(CC)CNC(=O)C(Cc1ccccc1)NS(=O)(=O)c1ccc2c(c1)CCC(=O)N2 (stereo not drawn) | . | . | -3 | 102 | . | i | 0.93
CC(=O)Nc1ccc(NC(=O)CCn2nnc3ccccc32)cc1 | 15 | 71 | 4 | 97 | . | i | 1
CCO[C@H]1OC(C(=O)NCc2ccccc2)=C[C@@H](c2ccc3c(c2)OCO3)[C@@H]1CCCO | . | . | 0 | 103 | . | i | 0.89
CC1CCc2sc(NC(=O)C3CC(Cl)=CCC3C(=O)O)c(C#N)c2C1 (stereo not drawn) | . | . | 3 | 102 | . | i | 0.94

Following part
SMILES | INS promoter inh | INS promoter inh cell count | PKD1 inh | RGS16-Gao HTS | GALR2 agonist | HSV augment | HSV augment primary fold
O=c1cccc2n1Cc1cc3ccccc3nc1-2 | 33 | 124 | -8 | 101 | -0.6 | i | 0.88
O=C(Cc1cccc(C(F)(F)F)c1)NCC(c1ccco1)N1CCCCC1 (stereo not drawn) | . | . | 7 | 96 | . | i | 0.98
CCOc1cc(CNC2CCCC2)cc(Cl)c1OCc1ccccc1 | -17 | 121 | 0 | 97 | 1.8 | i | 0.62
COC(=O)c1ccc(CSc2nc3c(c(=O)n2-c2ccccc2)SCC3)o1 | -20 | 98 | -1 | 87 | -0.3 | i | 0.94
COc1ccc(NCC(=O)N/N=C/c2c(C)nn(Cc3ccccc3)c2Cl)cc1 | . | . | 4 | 104 | -0.3 | i | 1
COc1ccc(NC(=O)CN2C(=O)C(c3ccccc3)=NC23CCCCCC3)cc1 | . | . | -5 | 77 | -1.0 | . | .
O=C(c1ccc(-c2cc(Cl)ccc2Cl)o1)N1CCOCC1 | -67 | 106 | 2 | 104 | . | i | 1
COC(=O)c1c(NC(=O)c2cnccn2)sc2c1CCC2 | 11 | 71 | -8 | 103 | 0.4 | . | .
O=C1CC(N2C(=O)/C(=C/C=C/c3ccccc3)SC2=S)C(=O)N1c1ccccc1 (stereo not drawn) | 7 | 133 | -3 | 97 | 0.3 | i | 1.1
N#CC1=C(N)Oc2cc(N)ccc2C1c1cccnc1 (stereo not drawn) | 50 | 87 | -2 | 106 | -2.0 | i | 0.88
O=C(/C=C/c1ccc(Cl)cc1Cl)NC(=S)Nc1ccccn1 | -15 | 91 | -2 | 102 | -2.0 | i | 0.96
CCCn1nc2cc(C(=O)NC3CCCc4ccccc43)ccc2c1OCC (stereo not drawn) | . | . | 4 | 99 | -2.5 | i | 0.96
Cc1nn(-c2ccccc2)c2sc(-c3n[nH]c(=S)o3)cc12 | . | . | -9 | 91 | -1.6 | i | 0.95
Cc1nn(CC(=O)OCC(=O)Nc2ccccc2[N+](=O)[O-])c(C)c1[N+](=O)[O-] | -4 | 79 | -6 | 16 | -1.1 | i | 1.1
CN(C)c1cccc(C(=O)Nc2cc(C(F)(F)F)ccc2-n2cnc3ccccc32)c1 | . | . | 4 | 197*[activator] | -0.7 | i | 1
Cc1nc(SCC(=O)NCCc2ccc(Cl)cc2)nc(C)c1C | 21 | 143 | 3 | 100 | -1.8 | i | 1.4
Cc1ccc(S(=O)(=O)N(C)C)cc1NC(=O)c1cccs1 | . | . | . | 98 | . | i | 1.1
OCCCNc1ncnc2c1[nH]c1ccccc12 | . | . | . | 100 | . | i | 0.97
COc1ccc(OC)c(C2=Nn3c(nnc3C3CCCCC3)SC2)c1 | 4 | 121 | -1 | 107 | -1.1 | i | 0.92
COc1ccc(C2N(c3ccc(OC)cc3)C(=O)C3CCCN32)cc1 (stereo not drawn) | . | . | -6 | 89 | -1.9 | i | 0.92
CC(c1ccccc1)N(NC(=O)C(O)(c1ccccc1)c1ccccc1)C(=O)c1ccccc1 (stereo not drawn) | -162 | 61 | -5 | 105 | -2.0 | i | 0.93
O=C(CCl)NCc1c(Cl)cccc1-n1cccc1 | 39 | 97 | -14 | 106 | -1.7 | i | 0.79
CCOC(=O)c1c(NC(=O)CN2CCCCC2)sc(C)c1C | 16 | 103 | 4 | 90 | . | i | 0.69
CCOC(=O)N1CCN(S(=O)(=O)c2cccc3ccc(C)nc23)CC1 | 11 | 55 | -4 | 108 | -0.6 | i | 1.2
N=C1C(c2nc(-c3cccc([N+](=O)[O-])c3)cs2)=C(O)CN1NC(=O)c1ccco1 | . | . | 5 | 94 | . | i | 1
COc1cccc(-c2cc(C(=O)Nc3cc(OC)c(OC)c(OC)c3)no2)c1 | 0 | 99 | -4 | 104 | -0.9 | i | 0.75
CCOC(=O)n1c(=O)n(C)c2ccc(Cl)cc21 | 56 | 135 | -3 | 97 | . | i | 0.91
Cc1cc(S(=O)(=O)n2cnc3cc([N+](=O)[O-])ccc32)ccc1Cl | 0 | 130 | 5 | 106 | -1.1 | i | 1.1
COc1ccccc1-n1cnc2c(c1=O)c1nc3ccccc3nc1n2CCc1ccccc1 | -50 | 79 | -7 | 77 | -1.3 | i | 1
COc1cc2c(cc1NC(=O)C(C)Sc1ccc(NC(C)=O)cc1)oc1ccccc12 (stereo not drawn) | 7 | 68 | 1 | 106 | -1.2 | i | 0.85
Cc1cc(NC(=O)CCC(=O)N(CC(=O)NCC2CCCO2)c2ccc3c(c2)OCCO3)no1 (stereo not drawn) | 3 | 97 | 4 | 97 | -2.6 | i | 1.1
Cc1ccc(NC(=S)N(CCCN2CCOCC2)Cc2ccco2)cc1 | . | . | -3 | 100 | . | i | 0.94
C[C@@H]1NC(=O)c2cc([N+](=O)[O-])cc(F)c2NCCC[C@@H](C(N)=O)NC(=O)[C@H](CC(N)=O)NC1=O | 15 | 118 | -12 | 104 | -2.0 | i | 0.82
CSc1cccc(NC(=S)N2CCC(N(C)C3CCCCC3)CC2)c1 | 31 | 84 | -2 | 152 | . | . | .
Cc1ccc(-c2nc(SCC(=O)NCC3CCCO3)c(-c3ccccc3)[nH]2)cc1 (stereo not drawn) | -29 | 82 | -12 | . | -1.3 | i | 0.97
COc1ccccc1C1C(C(=O)c2sc(C)nc2C)=C(O)C(=O)N1CCN1CCOCC1 (stereo not drawn) | 23 | 120 | -4 | 102 | -0.8 | i | 0.8
O=C(CSc1nc2ccccc2[nH]1)NC1CCS(=O)(=O)C1 (stereo not drawn) | -16 | 112 | -1 | 98 | -2.2 | i | 0.88
Cc1cccc(NC(=S)N(CCCN(C)C)Cc2cc3cc4c(cc3[nH]c2=O)OCO4)c1 | . | . | -4 | 100 | . | i | 0.8
COC(=O)c1ccc(NC(=O)CSc2nnc(COc3c(C)cccc3C)o2)cc1 | . | . | 0 | 103 | -1.2 | i | 0.94
CCN1CCCC1CNCC(=O)Nc1ccc(OC(F)(F)F)cc1 (stereo not drawn) | . | . | . | 99 | . | i | 0.98
CC(=O)Nc1ccc(NC(=O)C(C)OC(=O)c2ccc(C)s2)cc1 (stereo not drawn) | 0 | 30 | -2 | 100 | . | i | 0.93
Cc1ccc(/C=C(\NC(=O)c2ccccc2)C(=O)NC(Cc2ccccc2)C(=O)O)cc1 (stereo not drawn) | 0 | 132 | -2 | 105 | -1.4 | i | 0.99
N#C/C(=C\c1ccncc1)C(N)=O | 0 | 72 | -4 | 102 | . | i | 1.2
CCCCOc1ccc(Cl)cc1CSc1n[nH]c(C)n1 | 50 | 102 | -7 | 104 | -2.9 | i | 0.85
COc1ccc(NC(=O)CN2CCN(S(=O)(=O)c3ccc(C(C)C)cc3)CC2)cc1OC | -19 | 128 | 3 | 110 | -0.3 | i | 1
CCC(C)NC(=O)Cn1c(=O)n(CCCCCC(=O)Nc2ccccc2)c(=O)c2sccc21 (stereo not drawn) | -33 | 143 | -4 | 97 | 0.5 | i | 0.96
CNNC(=S)NC1CC2CC1C1C=CCC21 (stereo not drawn) | . | . | . | 106 | . | i | 0.98
COc1ccc(CC(=O)OCn2nnc3ccccc3c2=O)cc1OC | . | . | . | 101 | . | i | 0.93
CCC(C)(C)C1CCC(=NNS(=O)(=O)c2ccc(C)c([N+](=O)[O-])c2)CC1 (stereo not drawn) | 35 | 105 | -2 | 102 | 0.8 | i | 1
CC(C)(CO)NC(=O)C(c1ccccc1)c1ccccc1 | -406 | 65 | -8 | 102 | -0.8 | i | 1.1
c1ccc(Cn2ncc3c(N4CCCCC4)ncnc32)cc1 | 32 | 95 | 5 | 108 | -0.9 | i | 1.1
O=C(Nc1ccccc1C(F)(F)F)c1cc(S(=O)(=O)N2CCC3(CC2)OCCO3)ccc1F | . | . | -7 | 100 | -1.2 | i | 1.1
CCCCc1cc(=O)oc2cc(C)cc(O)c12 | -97 | 66 | 0 | 101 | -1.6 | i | 0.8
CCN(C(=O)CN1C=NS(=O)(=O)c2ccccc21)c1ccccc1 | 4 | 116 | 14 | 100 | 0.7 | i | 1.1

No enrichment for hits. Share with any hit: about 1.2%.
